Source: PubChem BioAssay (several laboratories)
Mtb betalactam = beta-lactam sensitization of Mtb H37Rv | M. tuberculosis H37Rv growth with meropenem, percent inhibition; hits of this screen are not shown here | inhibition, % at 25 µM | 0.27% of 330,000 active | AID 434955;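 active = about 74% or more and at least 40 points above the plate without the antibiotic, then above 30% in a dose series; inconclusive = first-round hits that could not be retested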;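 note: growth measured after seven days incubation then overnight dye step; 0% = bacteria only wells and 100% = bacteria with antibiotic; twin plates without the antibiotic show which effects depend on it; some results filed as inactive read as strong as hits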
Arbovirus anti = antivirals against arbovirus infection; arbovirus infection cell-based antiviral screen; inhibition, % at 10 µM; 0.37% of 200,000 active;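 active = inhibition from about 30%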;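 note: bluetongue infection of BSR cells; cell survival read as ATP light after 72 h; 0% = infected wells without compound and 100% = uninfected wells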
RecA intein inh = blocks M. tuberculosis RecA intein splicing. inhibition, %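 (about 9 µM by stock and volumes)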. cell-free RecA intein splicing, fluorescence. AID 2221. P9WHJ3. 0.75% of 290,000 active; in the data active = inhibition above about 30%; inconclusive = no clear call, values can overlap the other calls;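 note: 0% = vehicle wells and 100% = reference inhibitor control wells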
Target sequence (P9WHJ3 whole entry, looked up): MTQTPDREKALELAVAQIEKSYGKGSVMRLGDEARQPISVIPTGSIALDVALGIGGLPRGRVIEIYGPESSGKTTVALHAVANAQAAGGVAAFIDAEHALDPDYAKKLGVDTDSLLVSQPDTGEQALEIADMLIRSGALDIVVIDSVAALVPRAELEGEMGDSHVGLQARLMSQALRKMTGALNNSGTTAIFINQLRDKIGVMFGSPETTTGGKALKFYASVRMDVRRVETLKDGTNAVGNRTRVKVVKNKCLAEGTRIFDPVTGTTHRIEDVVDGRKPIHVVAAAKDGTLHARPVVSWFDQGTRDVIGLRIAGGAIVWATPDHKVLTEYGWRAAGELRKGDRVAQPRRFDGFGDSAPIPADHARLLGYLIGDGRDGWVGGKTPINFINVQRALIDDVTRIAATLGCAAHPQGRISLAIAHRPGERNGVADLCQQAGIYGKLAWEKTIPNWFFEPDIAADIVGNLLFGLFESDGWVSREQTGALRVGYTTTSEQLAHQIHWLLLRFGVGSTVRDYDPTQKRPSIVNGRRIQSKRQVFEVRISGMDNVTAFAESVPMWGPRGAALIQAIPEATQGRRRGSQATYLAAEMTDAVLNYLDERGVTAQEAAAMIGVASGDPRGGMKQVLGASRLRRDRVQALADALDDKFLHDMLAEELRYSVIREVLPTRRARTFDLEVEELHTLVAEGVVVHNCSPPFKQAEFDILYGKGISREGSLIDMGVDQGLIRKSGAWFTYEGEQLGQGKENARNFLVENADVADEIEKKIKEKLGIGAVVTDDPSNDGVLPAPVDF
YopH inh = blocks Yersinia enterocolitica YopH tyrosine phosphatase; 0.16% of 140,000 active; inhibition, %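 (about 10 µM by stock and volumes)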; fluorescence Ex485/Em525;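 active = inhibition of 50% or more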;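 note: controls were vehicle for no effect and minimum signal wells for full effect; inactives centre near -20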
Mtb H37Rv = M. tuberculosis H37Rv growth inhibitors, H37Rv strain (AID 1626). M. tuberculosis H37Rv growth inhibition; higher % means a stronger effect. 0.95% of 220,000 active. one-dose inhibition, % at 10 µM; IC50 in µM for titrated hits;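 active = confirmed in a dose series; inconclusive = inhibition above 80% but not taken into the dose series; inactive = below 80% or under 30% at every dose of the series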;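 note: bacteria incubated seven days before Alamar blue readout; 0% = bacteria only wells and 100% = bacteria with antibiotic wells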
Arbovirus anti repeat = second read-out of Arbovirus anti, no call of its own (marks repeat the call); inhibition, %; measured here: 10K subset replicate screen; many hits read low in the repeat;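 first of two repeat runs on a subset; 0% = infected and 100% = uninfected wells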
Numbers without * were called inactive; ? = inconclusive; . = not tested or not shown. An excerpt; rates above refer to the full screens.

SMILES | Mtb betalactam | Arbovirus anti | RecA intein inh | YopH inh | Mtb H37Rv | others
Cc1nn(C)c(C(=O)N2CCOCC2)c1Cl | -5 | 0 | 0.7 | -7 | -3%
CC1(C)NC(=O)N(CC(O)CN(c2cccc([N+](=O)[O-])c2)S(=O)(=O)c2ccccc2)C1=O (stereo not given) | 0 | . | 0.2 | . | .
Nc1nc(SCC(=O)N2CCCC2)[nH]c(=O)c1NC(=O)c1ccco1 | -4 | -4 | -0.2 | -14 | 1%
CC(C(=O)N1CCc2ccccc21)n1cccc1 (stereo not given) | -5 | 4 | -0.4 | -8 | -5%
O=C(NC(=S)Nc1ccc(CN2CCOCC2)cc1)c1ccco1 | -7 | . | 1.1 | . | 0%
CC(C)C(=O)Nc1c(O)c2ccccc2[nH]c1=O | -6 | 5 | -3.2 | . | 2%
Cc1sc(NC(=O)CN2CCOCC2)c(C#N)c1C | -7 | . | 0.0 | . | 7%
COc1cc(C(=S)N2CCOCC2)ccc1OS(=O)(=O)c1ccccc1[N+](=O)[O-] | -3 | 3 | -5.1 | -19 | 10%
CCCn1nnc(NC(=O)C(C)Oc2ccc(Cl)cc2Cl)n1 (stereo not given) | 1 | 0 | -0.6 | 22 | 6%
CC(=O)Nc1nnc(SCC(=O)c2ccc(F)cc2)s1 | 0 | -4 | -6.1 | . | 2%
Cc1cc(N2C(=O)CCC2=O)ccc1NC(=O)c1cccs1 | -3 | -1 | . | -12 | 2%
O=C(OCC(=O)N1CCCc2ccccc21)c1cc(S(=O)(=O)N2CCOCC2)ccc1F | -2 | . | -0.2 | . | .
Cc1sc2ncn(CC(=O)OCC(=O)NC(C)(C)C)c(=O)c2c1C | -2 | 5 | -6.3 | -23 | -9%
CN(C)c1nc(NN)nc(Nc2ccc(F)cc2)n1 | 10 | . | -4.3 | . | .
Cc1ccc(N2C(=O)c3ccccc3C2C(=O)c2ccc(C)c(C)c2O)cc1 (stereo not given) | 1 | . | . | . | 13%
C=CCn1c(SCC(=O)c2cc(C)n(C)c2C)nnc1-c1ccncc1 | 8 | -1 | -1.2 | . | 4%
CCOc1ccc(C(C)=O)cc1COC(=O)c1cccnc1SC | 0 | 8 | 0.2 | . | 11%
CC(C)n1cc(-c2nc(C(=O)NN)cs2)c(=O)n(Cc2ccccc2)c1=O | -4 | . | -1.3 | . | -2%
CCOc1ccc(Cc2nnc(SCC(=O)Nc3ccc(OC)cc3)n(N)c2=O)cc1 | -2 | . | 0.5 | . | .
O=C(Nc1cccc([N+](=O)[O-])c1)C1CCN(C(=O)Cc2ccccc2)CC1 | ? | . | 4.1 | . | .
CCC(CC)N1CCN(S(=O)(=O)c2ccc(OC)cc2)CC1 | -1 | . | 3.6 | . | .
CCn1cc(C(=O)NCc2ccc(C)cc2)c(=O)c2cc(S(=O)(=O)N(C)C)ccc21 | 7 | . | 1.2 | . | .
Cc1ccc(NCC(=O)N/N=C/c2cccn2C)cc1 | -8 | . | 0.6 | . | 2%
COc1ccc(CC(=O)NNC(=O)CCC(=O)Nc2cc(C)ccc2C)cc1 | 2 | 0 | 0.4 | . | 0%
CCCSc1nc(N2CCOCC2)c2c(c1C#N)CC(C)(C)SC2 | 10 | 0 | 13 | -2 | 7%

(list continues)
SMILES | Mtb betalactam | Arbovirus anti | RecA intein inh | YopH inh | Mtb H37Rv | others
CN(C(=O)COc1ccc([N+](=O)[O-])cc1)C1CCS(=O)(=O)C1 (stereo not given) | -1 | 5 | 2.6 | . | 5%
COc1ccccc1CNC(=O)N1CCN(S(=O)(=O)c2ccc(Cl)cc2)CC1 | 1 | . | -1.3 | . | .
COCCOC(=O)C1=C(N)OC(C)=C(C(=O)OC)C12C(=O)Nc1ccccc12 (stereo not given) | 5 | 1 | 1.4 | 1 | 3% | Arbovirus anti repeat=2
C/C(CC(=O)Nc1ccc(Cl)c(C(F)(F)F)c1)=N\NC(N)=S | 99 | -4 | 2.6 | . | 2%
CC[C@@H]1C=C(C)C[C@H](C)C[C@H](OC)[C@H]2O[C@@](O)(C(=O)C(=O)N3CCCC[C@H]3C(=O)O[C@H](/C(C)=C/[C@@H]3CC[C@@H](O)[C@H](OC)C3)[C@H](C)[C@@H](O)CC1=O)[C@H](C)C[C@@H]2OC | . | -6 | . | -8 | 6%
COc1ccc(-c2cc3nc(C)c(CCC(=O)NCc4ccc(F)cc4)c(C)n3n2)c(OC)c1 | 6 | 1 | -1.8 | . | 88%
CCOC(=O)COc1ccc(Br)cc1/C=C\c1[nH]c(=O)[nH]c(=O)c1[N+](=O)[O-] | -1 | 1 | 0.4 | -13 | -4%
CCOc1ccc(C(=O)COc2ccc(NC(C)=O)cc2)cc1 | -5 | 5 | 1.7 | -26 | -2%
O=C(CCC(=O)Nc1ccccc1)NNC(=O)c1ccccc1Cl | 1 | 9 | -0.3 | . | -2%
COc1ccc(Nc2nc(N)nc(CSc3nc(C)cc(C)n3)n2)cc1 | 2 | 1 | 0.0 | . | 4%
CCOC(=O)C(C)n1cnc2c(nnn2Cc2ccc(C)cc2)c1=O (stereo not given) | -6 | -1 | 3.7 | -8 | -1%
CCOc1cc(Br)ccc1S(=O)(=O)NCc1ccccc1 | -3 | 0 | 2.4 | -32 | .
Cc1onc(-c2ccccc2Cl)c1C(=O)NCc1nc(-c2ccc(C(F)(F)F)cc2)no1 | -1 | . | 1.1 | . | 8%
COCCOC(=O)c1c(C)nc(SCC(=O)Nc2ccc(C)cc2)c(C#N)c1-c1ccco1 | 5 | -3 | . | -35 | .
CCc1nc(NCc2ccccc2)c(C#N)c2c1CCCC2 | -1 | -10 | 0.2 | -18 | 4%
CCOc1ccc(-n2c(C)nc3cc(C(=O)NCc4ccc5c(c4)OCO5)ccc32)cc1 | 91 | -15 | 0.7 | -12 | 6%
Cc1ccc(NC(=O)C2CCN(S(=O)(=O)c3ccc(Cl)c(C(F)(F)F)c3)CC2)nc1 | -7 | . | -2.1 | . | .
O=C(NCCN1CCN(c2ccccc2)CC1)Nc1ccccc1Br | 0 | . | -0.9 | . | .
COc1ccc(CNC(=O)CC23CC4CC(CC(C4)C2)C3)cc1OC | 0 | . | 0.6 | . | .
CCOC(=O)Cn1nc(C)n(-c2ccc(Cl)cc2)c1=O | 1 | 1 | -4.2 | . | 4%
COc1c(OC(C)=O)c(=O)n2c3ccccc3c3ccnc1c32 | -7 | . | 1.6 | . | .
CCNc1cc(N2CCN(C)CC2)ccc1[N+](=O)[O-] | 0 | -8 | 4.3 | . | 3%
CCOC(=O)N1CCN(C(=O)c2cn(C)c3ccc(S(=O)(=O)N(C)C4CCCCC4)cc3c2=O)CC1 | 3 | . | -3.7 | . | .
Cc1cccc2c1CC(C)(C)N/C2=C\C(N)=O | -5 | 6 | 2.0 | -29 | 0%
Cc1ccc(-n2c(=O)c(C#N)cc3c(=O)n4ccccc4nc32)cc1C | -23 | -10 | -121 | -21 | -4%

Gathered by group: those above with a cyano group (five)
SMILES | Mtb betalactam | Arbovirus anti | RecA intein inh | YopH inh | Mtb H37Rv | others
Cc1sc(NC(=O)CN2CCOCC2)c(C#N)c1C | -7 | . | 0.0 | . | 7%
CCCSc1nc(N2CCOCC2)c2c(c1C#N)CC(C)(C)SC2 | 10 | 0 | 13 | -2 | 7%
COCCOC(=O)c1c(C)nc(SCC(=O)Nc2ccc(C)cc2)c(C#N)c1-c1ccco1 | 5 | -3 | . | -35 | .
CCc1nc(NCc2ccccc2)c(C#N)c2c1CCCC2 | -1 | -10 | 0.2 | -18 | 4%
Cc1ccc(-n2c(=O)c(C#N)cc3c(=O)n4ccccc4nc32)cc1C | -23 | -10 | -121 | -21 | -4%

Next section.
SMILES | Mtb betalactam | Arbovirus anti | RecA intein inh | YopH inh | Mtb H37Rv | others
Cc1ccc(-c2ncccc2OC(=O)C23CC4CC(CC(C4)C2)C3)cc1 | 99 | 10 | 16 | -34 | .
Clc1cc(Cl)cc(C2=NCCC(c3ccccc3)O2)c1 (stereo not given) | -9 | 1 | 11 | -22 | .
CC(=O)c1cccc(Oc2cc(NN3CCCCC3)c([N+](=O)[O-])cc2[N+](=O)[O-])c1 | -4 | . | 5.6 | . | .
O=C(O)c1ccc(NS(=O)(=O)c2cc(Cl)ccc2Cl)cc1 | -5 | -4 | -2.9 | -46 | -5% | Arbovirus anti repeat=-3
Cc1ccc(NC(=O)COC(=O)CNC(=O)c2ccc3ccccc3c2)c([N+](=O)[O-])c1 | -2 | 1 | 1.7 | -29 | -2%
COCCNC(=O)C(NC(=O)C1CCCCC1)C(C)C (stereo not given) | -7 | 0 | -3.7 | . | 0%
CSc1ccccc1NC(=O)CN(C)C(=O)c1ccc2c(c1)OCCO2 | 0 | . | -0.4 | . | .
Cc1nn(C)c(C)c1S(=O)(=O)NC1CCCC1 | 4 | 6 | 3.1 | -35 | -1%
CCn1c(=O)n(CC)c2cc(N3CCCC3)c(NC(=O)c3ccccc3)cc21 | 2 | . | -5.9 | . | .
Cc1cc(Br)ccc1SCC(=O)NCC(c1ccco1)N1CCCCC1 (stereo not given) | -8 | . | 2.3 | . | .
COC(=O)C1=C(c2cc3ccccc3o2)C[C@@H]2CC[C@H]1N2C(=O)N1CCC(C)CC1 | 3 | . | 15 | . | 2%
CCOc1ccc(NC(=O)CCC(=O)N/N=C/c2ccc([N+](=O)[O-])s2)cc1 | 100 | -4 | -2.2 | -24 | 9%
Cc1cccc(C)c1NC(=O)C(c1ccc(Cl)cc1Cl)N1CCCCC1 (stereo not given) | -6 | 6 | 1.9 | -37 | -9%
Cc1ccc(-c2nc3ncccn3c2Nc2ccccc2C)o1 | -9 | 6 | -10 | . | 11%
COc1cc(C)c(CN2CCN(c3ccccc3)CC2)cc1C | 2 | -1 | -1.4 | -22 | -2%
CCCCCCn1c(SCC(=O)Nc2cc(C)on2)nc2ccccc2c1=O | -1 | -11 | 1.0 | -26 | 5%
CCOc1cccc(-c2nnc3n2N=C(c2cc(OC)ccc2OC)CS3)c1 | -7 | 3 | 3.2 | -13 | -5% | Arbovirus anti repeat=-15
O=C(Nc1ccc(N2CCOCC2)c([N+](=O)[O-])c1)c1ccco1 | -3 | -5 | -1.2 | . | 7%
Cc1cccc(NC(=O)CSc2nc3c([nH]c4ccccc43)c(=O)n2C)c1 | 6 | -12 | 0.5 | . | 11%
COc1cc([N+](=O)[O-])ccc1NC(=O)C[n+]1cccc(C(C)=O)c1 | -3 | -5 | -0.7 | . | -1%
CCOc1cc(NS(=O)(=O)c2ccc(OC)cc2)c(OCC)cc1NC(=O)c1ccco1 | 5 | -4 | . | -21 | -7%
COc1cccc(-n2cc(-c3ccc(F)cc3)[nH]c2=S)c1 | 8 | . | 5.6 | . | .
CCCCOc1ccc(C(=O)N/C(=C/C=C/c2ccccc2)C(=O)NC)cc1 | 8 | -31 | . | -32 | 5%
CCc1ccc(-c2cc(C(=O)NCCCn3ccnc3)c3ccccc3n2)s1 | 85 | -36 | -20 | . | 9%
COC(=O)C1=C(C)N(Cc2ccco2)C(=O)N[C@@H]1c1cccc(C(F)(F)F)c1 | -5 | 32* | 2.0 | -22 | .
O=C(O)C1CCC(NSc2ccccc2[N+](=O)[O-])CC1 (stereo not given) | -14 | . | -2.5 | . | -4%
O=C(c1nc(-c2ccccc2)n(-c2ccccc2)n1)N1CCN(S(=O)(=O)c2ccccc2)CC1 | -8 | 0 | -0.5 | -22 | -7%
Cc1cccc(NC(=O)c2cc(-c3cc(C)ccc3O)n[nH]2)c1 | 9 | . | -0.1 | . | .
CCC1CCCCN1CCCNC(=O)Cn1ncc2c([nH]c3ccc(C)cc32)c1=O (stereo not given) | 4 | . | 1.8 | . | .
C=CCc1cccc([C@@H]2[C@@H](C)CC[C@H]3C(=O)N4[C@@H](c5cc(OC)c(OC)c(OC)c5)c5[nH]c6ccccc6c5C[C@H]4C(=O)N23)c1 | 88 | -8 | 4.2 | -22 | .

Looked up one by one from the list above:
SMILES | Mtb betalactam | Arbovirus anti | RecA intein inh | YopH inh | Mtb H37Rv | others
CCn1cc(C(=O)NCc2ccc(C)cc2)c(=O)c2cc(S(=O)(=O)N(C)C)ccc21 | 7 | . | 1.2 | . | .
Clc1cc(Cl)cc(C2=NCCC(c3ccccc3)O2)c1 (stereo not given) | -9 | 1 | 11 | -22 | .
Cc1cccc(NC(=O)c2cc(-c3cc(C)ccc3O)n[nH]2)c1 | 9 | . | -0.1 | . | .
COc1c(OC(C)=O)c(=O)n2c3ccccc3c3ccnc1c32 | -7 | . | 1.6 | . | .
Cc1sc(NC(=O)CN2CCOCC2)c(C#N)c1C | -7 | . | 0.0 | . | 7%
